hNpr1 antagonist: human Npr1 receptor antagonism. P16066. HEK293 hNpr1 GloSensor cGMP, ANP-stimulated luminescence. Potency, µM (highest dose often 46.3 µM), without a hit: at the top dose activity change, negative = inhibition, hits mostly inhibitors. actives 1.6% (n = 76,000). AID 1347048; active = well fitted inhibition curve with a large enough effect; inconclusive = small, poorly fitted or top-dose-only effect; inactive = no such curve, though single readings can be large or run the other way;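 also: nearly all actives have a fitted effect of over 60% in size; nearly all hits also lower the signal before the agonist is added; a reference antagonist and vehicle were the controls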
Target sequence (P16066 whole entry, looked up): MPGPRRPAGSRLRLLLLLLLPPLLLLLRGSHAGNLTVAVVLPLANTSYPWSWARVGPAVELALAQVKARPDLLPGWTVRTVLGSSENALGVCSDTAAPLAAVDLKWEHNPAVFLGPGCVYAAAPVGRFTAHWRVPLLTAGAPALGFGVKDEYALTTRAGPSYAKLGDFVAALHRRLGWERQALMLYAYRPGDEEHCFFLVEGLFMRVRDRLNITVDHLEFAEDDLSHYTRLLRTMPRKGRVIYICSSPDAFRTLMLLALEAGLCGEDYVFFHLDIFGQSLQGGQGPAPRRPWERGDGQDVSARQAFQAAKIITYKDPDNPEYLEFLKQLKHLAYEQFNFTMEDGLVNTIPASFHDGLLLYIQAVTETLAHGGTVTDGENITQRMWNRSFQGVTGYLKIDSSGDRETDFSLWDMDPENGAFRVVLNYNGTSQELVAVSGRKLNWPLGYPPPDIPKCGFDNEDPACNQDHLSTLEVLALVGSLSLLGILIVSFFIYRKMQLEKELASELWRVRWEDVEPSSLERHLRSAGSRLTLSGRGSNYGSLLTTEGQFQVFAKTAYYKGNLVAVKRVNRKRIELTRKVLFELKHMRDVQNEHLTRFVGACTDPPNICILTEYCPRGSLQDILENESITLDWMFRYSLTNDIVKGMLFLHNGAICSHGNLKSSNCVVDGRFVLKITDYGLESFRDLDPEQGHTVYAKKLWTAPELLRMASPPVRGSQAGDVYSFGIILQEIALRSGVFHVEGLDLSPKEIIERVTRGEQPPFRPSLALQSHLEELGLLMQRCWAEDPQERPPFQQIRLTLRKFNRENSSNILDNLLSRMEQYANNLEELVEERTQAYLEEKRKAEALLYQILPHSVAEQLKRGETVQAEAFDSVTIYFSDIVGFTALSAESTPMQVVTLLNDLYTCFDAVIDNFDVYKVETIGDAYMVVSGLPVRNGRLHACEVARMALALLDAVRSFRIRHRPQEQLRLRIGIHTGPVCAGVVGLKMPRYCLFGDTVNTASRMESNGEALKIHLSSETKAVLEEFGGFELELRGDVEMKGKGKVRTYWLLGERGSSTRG
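HEK293 cells stably expressing human Npr1 and cGMP GloSensor pGS-40F, loaded 2 h with 2% GloSensor reagent, given compound 30 min at room temperature. Luminescence read before and 20 min after 0.1 nM hNppA.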
* hit, by the source's call; u = inconclusive; [ ] = another dose, or the depositor's remark. % is scaled to controls: 0 for no effect and ±100 for the full control effect; potency is read from the fitted curve at half-maximal effect.

SMILES	hNpr1 antagonist
Cc1ccc([S+](=O)([O-])N2CCC(N3CC4CCCN4C3=O)CC2)cc1 (centres undefined)	7%
COCCCn1c(C)cnc1CC1CCN(S(=O)(=O)c2cccc(F)c2)CC1	-3%
O=C(NCc1ccc2c(c1)OCO2)c1nc(-c2ccccc2)c2ccccn12	1%
COc1cccc(-c2noc(CCCc3nc(C4CCOC4)no3)n2)c1 (centres undefined)	-3%
O=C(C1CCOCC1)N1CCC(Oc2cnc3c(ccn3-c3cncnc3)c2)CC1	-3%[70.6 µM]
O=C1N(C2CCN(S(=O)(=O)c3cnc[nH]3)CC2)C(c2ccccc2)C12CCCC2 (centres undefined)	2%
Cc1nn(C)cc1C(=O)N[C@@H]1CN(S(C)(=O)=O)C[C@H]1CN(C)C	2%
Cc1nc(CCC(=O)NCc2cc(Cl)cc3c(C)c(-c4ccccc4)[nH]c23)n[nH]1	-1%
CNC(=O)[C@H]1C[C@H](Oc2ccccc2)CN1S(=O)(=O)c1ccc(OC)cc1	-4%
CN1CCN(CC(O)COc2ccc(CN3CC(c4ccccn4)C3)cc2)CC1 (centres undefined)	0%

4 entries from above, comma-delimited.
smiles,hNpr1 antagonist
Cc1nn(C)cc1C(=O)N[C@@H]1CN(S(C)(=O)=O)C[C@H]1CN(C)C,2%
Cc1nc(CCC(=O)NCc2cc(Cl)cc3c(C)c(-c4ccccc4)[nH]c23)n[nH]1,-1%
CNC(=O)[C@H]1C[C@H](Oc2ccccc2)CN1S(=O)(=O)c1ccc(OC)cc1,-4%
CN1CCN(CC(O)COc2ccc(CN3CC(c4ccccn4)C3)cc2)CC1 (centres undefined),0%

The results go on.
SMILES	hNpr1 antagonist
Cc1ccc(CNC(=O)c2ccc3c(c2)CN(Cc2cccc(F)c2F)CCO3)cc1	-3%
CCN1c2cc(C(=O)Nc3cccc(C)c3)ccc2C(=O)N2CCCCCC21 (centres undefined)	-2%
COc1ccc(C(=O)N2C[C@@H]3C[C@H](C2)c2c(NS(=O)(=O)c4ccccc4)ccc(=O)n2C3)cc1	2%
C[C@]1(CO)[C@H]2Cc3sc(NC(=O)c4cccc(F)c4)nc3[C@@H](CC(=O)NCc3ccco3)[C@]2(C)CC[C@H]1O	-11%
Cc1cc(C)n(Cc2ccc(C(=O)N3CCC(c4noc(-c5cccnc5)n4)C3)o2)n1 (centres undefined)	4%
O[C@@H]1CO[C@H]2[C@@H]1OC[C@@H]2n1nnnc1Sc1ccccc1	-1%[70.6 µM]
CCCn1ccc2oc(C)c(C(=O)N3CCN(c4ccc(OC)cc4)CC3)c2c1=O	1%
CC(=O)c1cccc(NC(=O)Cn2c(N3CCc4ccccc4C3)nc(C)cc2=O)c1	-22%
O=C(c1ccc(F)cc1)N1CCC[C@H]1c1nc(-c2ccccc2Cl)no1	3%
Cc1ccc(C(=O)N(C)Cc2ccccc2C(F)(F)F)cc1	8%[70.6 µM]

Overlap with the part before: five entries; new compounds follow.
SMILES	hNpr1 antagonist
O[C@@H]1CO[C@H]2[C@@H]1OC[C@@H]2n1nnnc1Sc1ccccc1	-1%[70.6 µM]
CCCn1ccc2oc(C)c(C(=O)N3CCN(c4ccc(OC)cc4)CC3)c2c1=O	1%
CC(=O)c1cccc(NC(=O)Cn2c(N3CCc4ccccc4C3)nc(C)cc2=O)c1	-22%
O=C(c1ccc(F)cc1)N1CCC[C@H]1c1nc(-c2ccccc2Cl)no1	3%
Cc1ccc(C(=O)N(C)Cc2ccccc2C(F)(F)F)cc1	8%[70.6 µM]
Cc1ccc(CN2CCC(c3nnc(CN(C)C)n3C3CC3)CC2)o1	7%
CNC(=O)c1cccc(S(=O)(=O)NC2CCCN(C3CCCCCC3)C2)c1 (centres undefined)	-1%
COc1cccc(NC(=O)C2(C)CCc3cnc(NCc4ccccc4)nc32)c1 (centres undefined)	-24%[70.6 µM]
CCC[S+](=O)([O-])NC1CCN(C(=O)N2CC3CC(C2)[C@H]2CCCC(=O)N2C3)CC1 (some centres undefined)	-14%
O=C(c1ccc(Cl)cc1)N1CCOC(CN(C(=O)c2ccc(F)cc2)C2CCCC2)C1 (centres undefined)	-17%
C=CCn1nc(C(=O)N2CCOCC2)c2c1CCC(NCc1c(OC)ccc3ccccc13)C2 (centres undefined)	-4%
O=C(c1cccc(F)c1)N1CCCC(Cc2nc(C3CCOCC3)no2)C1 (centres undefined)	9%
COC1C(=O)N(C2CCN(S(=O)(=O)Cc3ccccc3)CC2)C12CCOCC2 (centres undefined)	-1%
COc1ccc(-c2noc([C@@H]3C[C@@H](O)CN3Cc3ccc(S(C)(=O)=O)cc3)n2)cc1	-5%[70.6 µM]
O=C(CCc1nc2ccccc2s1)N1CCC(N2CC3CC(C2)[C@H]2CCCC(=O)N2C3)CC1 (some centres undefined)	-1%
CC(C)c1nc2c(c(-c3ccc(O)cc3)n1)CN(C(=O)C1CCCC1)CC2	-1%
Cc1ccc2cc(CCC(=O)NCCN3CCN(C)CC3)c(=O)[nH]c2c1	0%
Fc1ccc(NC(=S)N[C@H]2CO[C@H]3[C@@H]2OC[C@@H]3n2nnnc2-c2ccc3c(c2)OCO3)cc1	-20%
Fc1ccc(Cc2nc3nccc(-c4ccccc4)n3n2)cc1	-2%
c1csc(-c2nc3nccc(-c4ccsc4)n3n2)c1	1%
COCc1cc(=O)n(CC(=O)Nc2ccc(Cl)cc2)c(N2CCOCC2)n1	-8%
CCS(=O)(=O)N1CCC(Cc2ccc(C(N)=O)cc2)CC1	0%
O=C(CC(c1ccccc1)c1cccc(Cl)c1)NC1CCC(O)CC1 (centres undefined)	-3%
CC(C)c1nc(-c2ccc(OC3CCN(C(=O)Cc4c[nH]c5ccccc45)C3)cc2)no1 (centres undefined)	u
Cc1oc(-c2cccc(Cl)c2)nc1CN1CCN(S(N)(=O)=O)CC1	u
O=C(N[C@@H]1CN(Cc2cccc(OC(F)(F)F)c2)CC[C@@H]1CO)c1ccccc1	2%
COc1ccc(-c2cccc(CCOc3cnc4c(ccn4CC(=O)O)c3)c2)c(C)c1	0%[70.6 µM]
Cc1cccc(CN2CCc3c(cc(C(=O)O)n3C)C2)c1	-1%
O=C(c1cnccn1)N1CCC(N2C(=O)C(OCC3CC3)C23CCCCC3)CC1 (centres undefined)	-2%
COc1ccc(-c2noc(COC(=O)C3=CN(C)S(=O)(=O)N=C3C)n2)cc1	7.9µM*
Cn1nccc1-c1ccc2ncn(Cc3ccccn3)c(=O)c2n1	7%[70.6 µM]
CNC(=O)[C@@H]1CN(C(=O)CN2CCOCC2)C[C@H]1COC	-4%
Cc1cc(S(=O)(=O)N2CCC(n3cnnc3-c3ccccc3)CC2)ccc1F	-28%
COCC1CN(Cc2ccccc2C(F)(F)F)CC12CCNCC2 (centres undefined)	-3%
CSc1cccc(NC(=O)O[C@@H]2CC[C@]3(C)C(CC[C@@H](O)[C@H]3CC(=O)N3CCCC3)[C@]2(C)CO)c1 (some centres undefined)	2%
COc1ccccc1-c1cn2c(n1)CO[C@@H](CNC(=O)NC(C)C)C2	4%[70.6 µM]
COCC(=O)N1CCn2c(nn(-c3ccc(C)cc3)c2=O)C1	9%[70.6 µM]
CN1CC2(C1)C(=O)N(Cc1cccc(Cl)c1)C(=O)[C@@H]1C[C@@H](O)CN12	5%[70.6 µM]
O=C(CCC[C@@H]1[C@H]2CCCN3CCC[C@@H](CN1C(=O)c1cccs1)[C@@H]23)N1CCOCC1	-2%
O=C(CCC1CCCC1)Nc1cccc(-c2nnc3n2CCCC3)c1	-30%
Cc1ccccc1S(=O)(=O)N1CCC(n2cnnc2-c2ccccc2)CC1	5%
CCN1CCC(OCCCNC(=O)CCC[C@H]2NC[C@@H]3C[C@H]2CN(Cc2ccccc2)C3)CC1	-14%
CCOc1ccccc1NC(=O)N1CCCC(c2noc(COC)n2)C1 (centres undefined)	-2%
O=C1Nc2ccccc2C12CCN([S+](=O)([O-])c1cccc(C(F)(F)F)c1)C2 (centres undefined)	2%
CN(Cc1ccncn1)C(=O)c1ccccc1C1CCNC1 (centres undefined)	5%
Cc1cn2nc(C(=O)NCCc3ccccc3)cc2c(N2CCSCC2)n1	6%
CN1C(=O)CCC2(CNC(=O)c3ccncc3)CCCC=C12 (centres undefined)	7%
Cc1cc(C(=O)N[C@@H]2C[C@H](Cn3cc(CN4CCS(=O)(=O)CC4)nn3)[C@@H](O)[C@H]2O)no1	-5%
O=C(O)CCC1CCN(C(=O)c2ccccc2)CC1	5%
CN(C)C[C@H]1O[C@@H](CO)[C@@H](O)[C@H]1N1CCN(c2ncccn2)CC1	3%
Cc1cc(C(=O)N2CCC(N3CCCC(C(=O)NCCc4ccccc4)C3)CC2)n[nH]1 (centres undefined)	1%
Cc1ccc(C(=O)N2CCN(c3cc(C(F)(F)F)ncn3)CC2)s1	-12%
CCCNC(=O)N(C1CCOCC1)C1CCN(C(=O)c2cccc(C(F)(F)F)c2)CC1	-2%
OC[C@@H]1CNC[C@H]1C1CCN(Cc2ccsc2)CC1	2%
COc1ccc(-c2noc([C@@H]3CCCN3C(=O)c3ccc(F)cc3Cl)n2)cc1OC	1%
Later entries:
SMILES	hNpr1 antagonist
O=C(C[C@@H]1C[C@H]2O[C@H](CNC3CCNCC3)[C@@H](O)[C@H]2O1)N1CCOCC1	3%
Cn1nc(C2CCN(C(=O)c3cccc(Cl)c3)CC2)[nH]c1=O	31%[activator][70.6 µM]
Cc1[nH]cnc1-c1nccn1CCN1N=C(c2ccccc2)CCC1=O	-1%
CCN1CCC2(CCC1=O)CN(Cc1cc(C#N)n(CC)c1)CCN2C (centres undefined)	5%
CC1(CNC(=O)c2ccoc2)CCOCC1	9%
CCN1C(=O)C2CC3(CCN(C(=O)c4cccs4)CC3)CN2C1=O (centres undefined)	-16%
CCCN1CC(Oc2ccc(-c3noc(C4CC4)n3)cc2)C1	-3%
CCCN1CCC(NC(=O)c2cc(COc3ccccc3)[nH]n2)CC1	0%
COC(=O)CC1C(=O)NCCN1C(=O)c1ccccc1-c1ncc[nH]1 (centres undefined)	1%
Cc1cnn(CC(=O)N2CCCCCCNC(=O)[C@@H]3CCCC[C@@H]32)c1	-1%
Cc1ccccc1-c1cccc(C(=O)N(C)Cc2ncc[nH]2)c1	-17%
COC(=O)C1CCCN1C(=O)c1c(C)oc2c1CN(Cc1ccc(C)cc1)CC2 (centres undefined)	-6%
Cc1cc2nc3n(c(=O)c2n1CC(=O)Nc1cccc(Br)c1)CCCCC3	-25%
COC(=O)[C@@H]1Cc2ncn(C(C)C)c2CN1S(C)(=O)=O	0%[70.6 µM]
O=C(N[C@@H]1COCC[C@@H]1Oc1ccc(F)cc1)c1cnc(C2CC2)nc1	0%
COc1ccc(N2Cc3c(NCC4CC4)ncnc3N(C)CC2=O)cc1	10%
O=C(C1CCC1)N1CCC(N2CC(OCC3CC3)C23CCCCC3)CC1 (centres undefined)	1%
Cc1cnc(C2CC2)n1C1CCN(C(=O)c2ccco2)CC1	10%
CC(C)c1noc(CC2CCN(C(=O)c3cccs3)CC2)n1	-21%
COC(=O)[C@H](NC(=O)[C@@H]1C[C@H](NC(=O)Nc2cccc(SC)c2)CN1C(=O)c1cccn1C)C(C)C	5%

An excerpt from above in order of their number in hNpr1 antagonist, largest number first:
SMILES	hNpr1 antagonist
Cc1cnc(C2CC2)n1C1CCN(C(=O)c2ccco2)CC1	10%
O=C(C1CCC1)N1CCC(N2CC(OCC3CC3)C23CCCCC3)CC1 (centres undefined)	1%
O=C(N[C@@H]1COCC[C@@H]1Oc1ccc(F)cc1)c1cnc(C2CC2)nc1	0%
Cc1ccccc1-c1cccc(C(=O)N(C)Cc2ncc[nH]2)c1	-17%

The list goes on:
SMILES	hNpr1 antagonist
Cc1cc(C(=O)N2CCC(N3C[C@H](O)C[C@H]3C(=O)NC3CCCCC3)CC2)nn1C	7%
Cc1nc(C)c(C(=O)N2CCC3(CC2)NC(=O)CC3C(=O)O)s1 (centres undefined)	-1%
Cc1cc2nc3n(c(=O)c2n1CC(=O)N1CCN(c2ccccc2)CC1)CCCCC3	0%
O=S(=O)(c1ccccc1)N1CCCC(Cc2noc(-c3cnccn3)n2)C1 (centres undefined)	0%
CCCCNC(=O)[C@H]1CCC[C@H]1NC(=O)c1ccncc1	5%
COc1cccc(CN2Cc3nc(N(C)c4ccccc4)ccc3OCC2=O)c1	u
Clc1ccccc1C1(c2ccnc(NCc3ccccn3)n2)CCNCC1	-1%
CNC(=O)NC[C@H]1CCN(Cc2ccncc2F)C[C@H]1N(C)C	-2%
COCc1cc(=O)n(CC(=O)Nc2ccccc2C)c(N2CCOCC2)n1	2%
O=C(NC1CC1)c1cc2n(n1)CCCN(C(=O)c1ccccc1-c1ccccc1)C2	4%
Cc1cccc2c(C3CCN(S(=O)(=O)c4c(Cl)cccc4Cl)CC3)c[nH]c12	-1%
Cn1c(N2CCC3(CC2)OCCCC3O)nc2c1c(=O)[nH]c(=O)n2C (centres undefined)	1%
CCN1CC2(CCN(Cc3cnn(-c4ccc(F)cc4)c3)CC2)CC1=O	-4%
CCC(=O)N1CCc2c(C(=O)Nc3ccc(OC)cc3OC)cccc21	-11%
CCOC1CCOC2(CCN(C(=O)c3ccoc3)CC2)C1 (centres undefined)	0%
CN(C)c1cccc(C(=O)N2CCNc3cnc(Nc4cccc(C(F)(F)F)c4)nc3C2)c1	16µM*
O=C(c1cccc2[nH]ccc12)N1CCC([C@@H]2CNC[C@H]2CO)CC1	8%
FC(F)(F)c1cccc(C2=NOC3(CCCN(Cc4cccnc4)C3)C2)c1 (centres undefined)	5%
COc1ccc(C(=O)N[C@@H]2CCC[C@@H]2C(=O)Nc2cc(F)ccc2C)cn1	-2%

These rows are one share of the data; rates above refer to the full screens.
